Screening data deposited in PubChem by Southern Research Institute.
Mtb H37Rv = Confirmatory growth inhibition assay against Mycobacterium tuberculosis H37Rv, potency (AID 1949). most inactive calls were filed without a number and no value below 0 was filed. inhibition, % at 10 µg/mL; hits with a dose series show IC50 in µg/mL. 1.6% of 100,000 active;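 active = confirmed in a dose series; inconclusive = about 50% or more but not retested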;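 note: bacteria grown 7 days with compound before Alamar blue readout; 0% = untreated bacteria and 100% = reference antibiotic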
An asterisk follows results filed as active; i = inactive; ? = inconclusive.

The opening 2 records, ahead of the listing:
SMILES	Mtb H37Rv
O=Cc1ccc(OCc2ccc(C(=O)O)cc2)cc1	i
CN(C)S(=O)(=O)c1ccc(NC(=O)COc2ccc(Cl)cc2Br)cc1	i

The listing, from the first entry:
SMILES	Mtb H37Rv
O=Cc1ccc(OCc2ccc(C(=O)O)cc2)cc1	i
CN(C)S(=O)(=O)c1ccc(NC(=O)COc2ccc(Cl)cc2Br)cc1	i
CC(CCc1ccccc1)NC(=O)c1ccncc1 (stereo not drawn)	i
COc1ccc(OC)c(/C=N/NC(=O)/C(=C\c2ccc3c(c2)OCO3)NC(=O)c2ccccc2)c1	i
CCOc1ccccc1C(=O)n1nc(C)cc1C	0.8%
CC(C)OC(=O)c1ccc(NC(=S)NC(=O)COc2ccccc2)cc1	i
COc1ccc(C)cc1NC(=O)N1CCC(Cc2ccccc2)CC1	i
O=C(NCc1ccc(Br)cc1)C(=O)c1c[nH]c2ccccc12	4.5%
Fc1ccc(NC(=S)Nc2cccc(C(F)(F)F)c2)cc1	31.7%
O=C(Nc1ccc(I)cc1)C1CCN(C(=O)c2ccc(Cl)cc2)CC1	2.1%
O=C(C1CCC1)N1CCN(c2ccccn2)CC1	i
Cc1ccc(N(CC(=O)NC2CCCCCC2)S(=O)(=O)c2ccc(F)cc2)cc1	i
COc1ccccc1-n1c(SC(C)C(=O)N2CCCCC2)nc2ccc(I)cc2c1=O (stereo not drawn)	30.8%
C=CCn1c(NC(C)c2cc(Cl)ccc2O)nc2ccccc21 (stereo not drawn)	5.9%
CCN(CC)C(=O)CCCOc1ccc(Cl)cc1Cl	i
CCc1[nH]nc2c1C1(C(=O)Nc3ccc(Cl)cc31)C(C#N)=C(N)O2 (stereo not drawn)	i
Cc1cc(C(=O)Nc2sc(C)c(C)c2C#N)no1	i
O=C(NCc1ccccc1F)Nc1ccc2c(c1)OCO2	i
Cc1cccc(N2C(=O)CC(c3cn(C)c4ccccc34)C2=O)c1 (stereo not drawn)	0.4%
CCOc1ccc(S(=O)(=O)n2c(C)nc3ccccc32)cc1C	i
CCOC(=O)c1c(-c2ccc(OC)cc2)oc2ccc(OS(C)(=O)=O)cc12	i
CCc1cccc(OCCN2CCCC2)c1	i
COc1cccc(N(CC(=O)Nc2ccc(NC(C)=O)cc2)S(=O)(=O)c2ccccc2)c1	i
Cc1ccc(SCC(=O)Nc2cccc(-c3nnc(-c4ccco4)o3)c2)cc1	i
CN1CCC(N(C)C(=O)Nc2cccc3ccccc23)CC1	0.5%
Cc1ccc(OCC(=O)Nc2ccc(-c3nc4cc(Cl)ccc4o3)cc2)c(C)c1	0.4%
O=C(c1cccs1)N1CCN(c2ccc([N+](=O)[O-])c(N3CCCCC3)c2)CC1	i
CC(C(=O)N1CCN(C(c2ccccc2)c2ccccc2)CC1)N1C(=O)c2ccccc2C1=O (stereo not drawn)	i
CC1CN(C(=O)c2ccc(COc3ccc(C(C)C)cc3)o2)CC(C)O1 (stereo not drawn)	i
COc1ccc(N(CC(=O)NCc2ccccn2)S(=O)(=O)c2ccccc2)cc1Cl	i
Cc1ccc(Cl)cc1N1CCN(C(=O)C2C3CCC(C3)C2C(=O)O)CC1 (stereo not drawn)	0.0%
O=C(Cc1ccccc1[N+](=O)[O-])NC1CCCCCCCCCCC1	0.9%
Fc1ccc(NC(=S)N2N=CCC2c2ccccc2)cc1 (stereo not drawn)	i
O=C(NNC(=S)NCc1ccccc1)c1cc2ccccc2cc1O	i
CCOc1cc2c(cc1OCC)C(c1ccccc1OC)OC(=O)C2 (stereo not drawn)	i
COc1cccc(NC(=O)CSc2nnc(-c3ccc(Cl)cc3)n2-c2ccc(F)cc2)c1	i
O=C(NCCCn1ccnc1)C(Cl)(Cl)Cl	0.8%
Oc1ccc(Cl)cc1C(C#Cc1ccccc1)N1CCOCC1 (stereo not drawn)	i
Cc1ccc(CN(c2ccc(C(=O)Nc3ccc(F)cc3F)cc2)S(C)(=O)=O)cc1	i
Cc1cc(C(=O)Nc2sc3c(c2C(N)=O)CCCCCC3)ccc1[N+](=O)[O-]	i
Cn1c(=O)c2[nH]c(-c3ccnc4ccccc34)nc2n(C)c1=O	i
C=CCOc1ccc(C(=O)NCc2ccncc2)cc1	2.1%
O=c1oc2c(CN3CCN(CCO)CC3)c(O)ccc2cc1-c1nc(-c2ccc(Br)cc2)cs1	14.7%
Cc1nn(S(=O)(=O)c2cccs2)c(C)c1Sc1ccc(Cl)cc1	i
CCc1cccc(NC(=O)c2sc3ccccc3c2Cl)c1	15.2%
CC(=O)c1ccc(N2CCN(C(=S)Nc3ccc4c(c3)OCO4)CC2)cc1	0.9%
CC(C)CNS(=O)(=O)c1ccc(CCC(N)=O)cc1	i
O=C(c1ccc2c(c1)OCO2)n1nnc2ccccc21	i
CCNc1nc(NC(C)(C)C)nc(OCCNC(=O)Nc2ccccc2)n1	7.2%
Cc1ccc(S(=O)(=O)N(CC(=O)Nc2c(C)cc(C)cc2C)c2ccc(C(C)C)cc2)cc1	i
COc1ccc(N/C(N)=N/c2nc(-c3cccs3)cc(C(F)(F)F)n2)cc1	i
C=CCOc1ccc2c(C)c(CC)c(=O)oc2c1C	i
Cc1occc1C(=O)NNC(=O)c1ccccc1F	i
N/C(=N\OC(=O)Cc1ccccc1)c1ccccn1	i
COc1ccc2[nH]c(=O)c(CN(C)S(=O)(=O)c3ccc(C)cc3)cc2c1	i
O=C(CSc1nnc(NC(=O)CCc2ccccc2)s1)Nc1ccc([N+](=O)[O-])cc1	0.6%
COc1ccc(S(=O)(=O)N(CC(=O)Nc2ccccc2C(C)C)c2cc(Cl)ccc2OC)cc1OC	4.0%
O=[N+]([O-])c1ccc(C2Nc3c(O)ccc(Br)c3C3C=CCC32)cc1 (stereo not drawn)	2.1%
Cc1cc(Cl)ccc1NC(=S)N1CCN(C)CC1	i
CCOC(=O)C1=C(C)Nc2ncnn2C1c1ccc(OC)c(OCC)c1 (stereo not drawn)	i
Continuation.
SMILES	Mtb H37Rv
CC(C)(C)NC(=O)Cc1coc2ccc3ccccc3c12	2.4%
CCc1cc(=O)oc2cc(C)cc(OCC(=O)c3ccc(N4CCCC4)cc3)c12	i
Cc1ccccc1NS(=O)(=O)c1ccc(NS(=O)(=O)c2ccc(F)cc2)cc1	i
S=C(NCc1ccco1)Nc1ccccn1	i
Cc1ccnc(NC(=O)COc2ccc3oc4c(c3c2)CCCC4)c1	i
O=c1[nH]ncc(NCc2ccccc2)c1Cl	i
COc1ccc(NS(=O)(=O)c2ccc(OCC(=O)N3CCOCC3)cc2)cc1	i
COc1ccc(N2CCN(C(=O)c3ccncc3)CC2)cc1	i
Cc1ccc(NC(=O)CN(c2ccccc2F)S(C)(=O)=O)cc1	2.9%
COc1cc(C2N=C(N)Nc3nc4ccccc4n32)ccc1O (stereo not drawn)	i
CCOc1ccc(NC(=O)c2nc3nc(C)cc(C(F)F)n3n2)cc1	i
CC(C)(C)c1cc(Br)ccc1OCC(=O)N1CCCCC1	i
CNc1nc(N2CCc3ccccc32)ncc1F	0.91µg/mL*
O=C(O)c1c[nH]c2c(F)cccc2c1=O	i
Cc1ccc(S(=O)(=O)NCCNc2ccc(C(F)(F)F)cc2[N+](=O)[O-])cc1	i
CCCNC(=O)c1cccc(COc2ccccc2OC)c1	i
Cc1cccc(NC(=O)CSc2nc(O)c(Cc3ccccc3)c(=O)[nH]2)c1	i
CCc1ccc(N(CC(=O)N2CCCC2)S(=O)(=O)c2ccccc2)cc1	i
COCCCNC(=O)Nc1ccc(F)cc1F	i
CN(CCOc1cccc2ccccc12)Cc1ccccc1	0.9%
CCN(CC)C/C=C/c1c(F)c(F)c(NCC2CCCO2)c(F)c1F (stereo not drawn)	12.7%
Cc1cc(C)nc(Nc2n[nH]c(COc3cccc4cccnc34)n2)n1	i
O=C(O)CCCc1c(-c2ccccn2)[nH]c2ccc(Cl)cc12	0.6%
CCCn1nnnc1NCc1ccccc1OCc1cccs1	i

A portion from further up:
SMILES	Mtb H37Rv
Cc1ccnc(NC(=O)COc2ccc3oc4c(c3c2)CCCC4)c1	i
O=c1[nH]ncc(NCc2ccccc2)c1Cl	i
COc1ccc(NS(=O)(=O)c2ccc(OCC(=O)N3CCOCC3)cc2)cc1	i
COc1ccc(N2CCN(C(=O)c3ccncc3)CC2)cc1	i
Cc1ccc(NC(=O)CN(c2ccccc2F)S(C)(=O)=O)cc1	2.9%
COc1cc(C2N=C(N)Nc3nc4ccccc4n32)ccc1O (stereo not drawn)	i
CCOc1ccc(NC(=O)c2nc3nc(C)cc(C(F)F)n3n2)cc1	i
CC(C)(C)c1cc(Br)ccc1OCC(=O)N1CCCCC1	i
CNc1nc(N2CCc3ccccc32)ncc1F	0.91µg/mL*
O=C(O)c1c[nH]c2c(F)cccc2c1=O	i
Cc1ccc(S(=O)(=O)NCCNc2ccc(C(F)(F)F)cc2[N+](=O)[O-])cc1	i
CCCNC(=O)c1cccc(COc2ccccc2OC)c1	i
Cc1cccc(NC(=O)CSc2nc(O)c(Cc3ccccc3)c(=O)[nH]2)c1	i
CCc1ccc(N(CC(=O)N2CCCC2)S(=O)(=O)c2ccccc2)cc1	i
COCCCNC(=O)Nc1ccc(F)cc1F	i
CN(CCOc1cccc2ccccc12)Cc1ccccc1	0.9%
CCN(CC)C/C=C/c1c(F)c(F)c(NCC2CCCO2)c(F)c1F (stereo not drawn)	12.7%
Cc1cc(C)nc(Nc2n[nH]c(COc3cccc4cccnc34)n2)n1	i
O=C(O)CCCc1c(-c2ccccn2)[nH]c2ccc(Cl)cc12	0.6%

More results follow:
SMILES	Mtb H37Rv
CN(C)c1ccc(NC(=O)c2cc3c(n(-c4ccccc4)c2=O)CC(C)(C)CC3=O)cc1	i
O=C(Nc1ccccc1-c1nc2ccccc2[nH]1)NC1CCCCC1	?
CC(NC(=O)CSc1nnc(-c2ccc(Cl)cc2Cl)n1N)c1ccccc1 (stereo not drawn)	i
Cc1cccc(C)c1OCCNC(=O)c1ccc2ccccc2n1	i
COc1ccc(Cl)cc1C(=O)Nc1ccc(NS(=O)(=O)c2ccc(C)cc2)cc1	11.9%
Fc1ccc(OCCn2cc(C(=S)N3CCCC3)c3ccccc32)cc1	i
O=C(NCCOc1cccc2cccnc12)C1CC1	5.4%
CCC1(C)Cc2ccccc2-c2[nH]c(=S)n(-c3ccccc3OC)c(=O)c21 (stereo not drawn)	i
CCOc1ccccc1OCCCOc1cccc(Br)c1	6.5%
Cc1ccc(Nc2nc3nonc3nc2NNc2ccccc2)cc1Cl	3.1%
COc1cccc(-n2cnc3sc4c(c3c2=O)CCCC4)c1	2.7%
O=c1c2ccccc2nc(Cc2ccccc2)n1-c1ccccc1[N+](=O)[O-]	i
O=C(CSc1nccc(=O)[nH]1)Nc1nccs1	i
Nc1cc(N)nc(SCC(=O)c2ccc(F)cc2)n1	i
Cc1ccc(NC(=O)CSc2nc(-c3cccs3)cc(C(F)(F)F)n2)c([N+](=O)[O-])c1	i
O=C(/C=C/c1cc(Cl)ccc1Cl)Nc1ncc(Cc2ccc(Cl)c(Cl)c2)s1	i
O=C(CSCC(=O)Nc1ccccc1Cl)Nc1ccccc1	i
CS(=O)(=O)Nc1ccccc1C(=O)O	0.3%
Cn1c(SCc2nc(C(c3ccccc3)c3ccccc3)no2)nnc1-c1cccs1	i
O=C(Cc1cccc2ccccc12)Nc1cccnc1	i
CSc1ccccc1NC(=O)C(C)NS(=O)(=O)c1ccc(Cl)cc1 (stereo not drawn)	1.9%
Cc1ccccc1-c1nc(C#N)c(N2CCN(C)CC2)o1	i
Cc1c(CCC(=O)O)c(=O)oc2cc(OCc3ccccc3Br)ccc12	i
O=C(Nc1ccncc1)c1c(F)cccc1F	0.8%
CCOC(=O)C1=C(C)NC2=C(C(=O)CCC2)C1c1cc(OC)c(O)cc1Cl (stereo not drawn)	i
c1ccc(-c2ccccc2OCCCN2CCCCC2)cc1	i
Cc1ccc(NC(=O)c2cnccn2)cc1	0.8%
Cc1cccc2cc(C=O)c(SCC(=O)O)nc12	i
CCC(CC)c1nnc(NC(=O)C2c3ccccc3Oc3ccccc32)s1	i
COC(=O)c1ccccc1NC(=O)c1ccc(COc2ccc3ccccc3c2)cc1	i
O=C(COc1ccccc1)NC(=S)Nc1ccccc1OC(F)F	i
Cc1ccccc1SCc1n[nH]c(=S)n1Cc1ccccc1	3.3%
CCN(CC)S(=O)(=O)c1ccc(C(=O)N2CCCCC2)cc1	i
COc1ccc(OCCCC(=O)Nc2ccc(C(C)C)cc2)cc1	i
COc1ccc(OC(C)C(=O)NCc2ccccn2)cc1 (stereo not drawn)	i
CCc1ccc(-c2nc3cc(NC(=O)c4ccc(I)o4)ccc3o2)cc1	3.4%
Cc1ccccc1C(=O)Nc1cccc(C(=O)N2CCOCC2)c1	i
COc1ccccc1NC(=O)C(C)N(c1ccccc1)S(C)(=O)=O (stereo not drawn)	i
COc1cc(S(=O)(=O)N2CCCCC2)c(OC)cc1Br	4.1%
O=C(NCCCO)/C(=C\c1ccc(F)cc1)NC(=O)c1ccco1	2.3%
CC(C)c1ccccc1OCCn1c2ccccc2c2ccccc21	i
Cc1ccc(C)c(NC(=O)c2ccc(C)c(Br)c2)c1	i
CCOc1ccc(OCC)c(S(=O)(=O)N2CCN(c3ccc(C)c(Cl)c3)CC2)c1	6.4%
OC1CCN(C(=S)NCCc2ccccc2)CC1	i
COc1cccc(N(C(=O)c2ccccc2)C2C=CS(=O)(=O)C2)c1 (stereo not drawn)	i
O=C(Nc1ccc2oc(-c3ccc(Cl)c(Cl)c3)nc2c1)c1cncc(Br)c1	i
O=C(c1ccccc1)c1ccc(OCCCn2ccnc2)cc1	i
O=C(CSc1ccc(Br)cc1)Nc1ccc([N+](=O)[O-])cc1	23.6µg/mL*
CNC(=O)CN(C)S(=O)(=O)c1ccc(OC)c(C)c1	i
Cc1cc(C)n(CC(=O)NCc2cc(-c3nn(C)c(=O)c4ccccc34)ccc2C)n1	3.4%
Cc1cccc(NC(=S)NC(=O)CC23CC4CC(CC(C4)C2)C3)c1	2.89µg/mL*
O=c1nc(N2CCCCC2)nc2n1CCO2	0.8%
O=C(Nc1ccc(S(=O)(=O)NCCc2ccccc2)cc1)c1ccc(Cl)s1	i
CCOC(=O)N1CCN(C(=O)c2cc(-n3cnnc3)ccc2Cl)CC1	i
CCOc1ccc(CC(=O)Nc2ccc(S(=O)(=O)N3CCCCCC3)cc2)cc1OCC	4.0%

A portion of the library; count on the stated rates, not on these rows.
